Ecoli rRNA inh: reduced GFP signal of wild-type E. coli, primary screen, bacterial rRNA inhibitor project, GFP/RFP fluorescence, OD600, single point | E. coli WT GFP vs humanized-ribosome RFP mutants, 24 h; active compounds read low; DMSO median 0, no signal -100 | GFP signal change (wild-type ribosome), % (no concentration beside the values) | 350,000 compounds, 1.6% hits | AID 720706, 2013;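 active = significant combined selectivity score with lowered wild-type GFP, culture density cut under 30%, mutant RFP and density less affected; inactive = any of these conditions unmet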; also: one replicate is shown; some compounds called inactive have numbers as strong as hits
T cruzi repl: inhibitors of intracellular T. cruzi growth, primary screen, luminescence, NIH3T3 host cells; T. cruzi beta-gal in NIH3T3, 90 h; inhibition, % (test concentration not listed); 300,000 compounds, 1.4% hits;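 active = mean inhibition across valid replicates above about 55%, limit read from the data; inconclusive = mean below that limit but half or more replicates reach it; inactive = mean below it, under half of replicates reach it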;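 also: signal also drops with host cell toxicity which is not excluded here; 0% = plate median of DMSO wells and 100% = zero luminescence signal; higher percent means less beta-gal luminescence so fewer parasites; stock transfer was 50 nL into about 50 µL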
Calb FLC: C. albicans growth inhibition with fluconazole, primary screen, CaCi-2 strain, Alamar Blue fluorescence; C. albicans CaCi-2 (fluconazole-resistant clinical isolate) + fluconazole, 48 h; 300,000 compounds, 0.57% hits; growth inhibition, % (no concentration beside the values);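 active = most replicates above 75%; inconclusive = exactly half above 75%; inactive = most below 75%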;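 also: all wells also contain fluconazole at 8 µg/ml as a sub-toxic cotreatment; 0% = median of DMSO wells and 100% = median of geldanamycin control wells; wells of about 8 µL received 7.5 nL stock; the first replicate is given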
Beta apoptosis: inhibitors of cytokine-induced beta cell apoptosis, primary screen, luminescence. INS-1E cytokine-induced death, ATP luminescence, 48 h; percent of positive-control rescue, neutral wells zero. protection from apoptosis, % (test concentration not listed). 300,000 compounds, 0.8% hits. AID 435005, 2010;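 active = all replicates at 75% or more, or half of them and the mean; inconclusive = half reach 75% but not the mean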;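 also: 0% = cytokine-treated negative control wells and 100% = positive control rescue; higher means more ATP so stronger rescue from cytokine killing; wells of about 40 µL received 100 nL stock; the first replicate is given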
RanGTP-Impb inh: inhibitors of RanGTP-importin-beta interaction, primary screen, biochemical, FRET, CFP-Ran, YFP-importin-beta, homogeneous | Ran GTPase (GTP-bound) - importin-beta complex | cell-free CFP-Ran/YFP-importin-beta FRET ratio | inhibition, % (test concentration not listed) | 300,000 compounds, 1.1% hits;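 active = most replicates above 15%; inconclusive = exactly half above 15%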;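 also: 0% = DMSO wells and 100% = Ran loaded with GDP instead of GTP; wells of about 40 µL received 100 nL stock; the first replicate is given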
AF4-AF9 inh: inhibitors of AF4 peptide binding to AF9, primary screen, biochemical, AlphaScreen, biotin-AF4 peptide, FLAG-AF9, single point. Protein AF-9 (Homo sapiens), P42568. inhibition, % at 10 µM. 350,000 compounds, 0.47% hits;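 active = every replicate reaching a set inhibition limit, whatever the replicate mean, cut at about 25% in these data; inconclusive = mean inhibition reaches that limit but some replicates miss it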;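 also: 0% = plate neutral control median and 100% = total signal loss; the record names both 10 and 1 µM as test concentration; the first replicate is given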
Target sequence (P42568 whole entry, looked up): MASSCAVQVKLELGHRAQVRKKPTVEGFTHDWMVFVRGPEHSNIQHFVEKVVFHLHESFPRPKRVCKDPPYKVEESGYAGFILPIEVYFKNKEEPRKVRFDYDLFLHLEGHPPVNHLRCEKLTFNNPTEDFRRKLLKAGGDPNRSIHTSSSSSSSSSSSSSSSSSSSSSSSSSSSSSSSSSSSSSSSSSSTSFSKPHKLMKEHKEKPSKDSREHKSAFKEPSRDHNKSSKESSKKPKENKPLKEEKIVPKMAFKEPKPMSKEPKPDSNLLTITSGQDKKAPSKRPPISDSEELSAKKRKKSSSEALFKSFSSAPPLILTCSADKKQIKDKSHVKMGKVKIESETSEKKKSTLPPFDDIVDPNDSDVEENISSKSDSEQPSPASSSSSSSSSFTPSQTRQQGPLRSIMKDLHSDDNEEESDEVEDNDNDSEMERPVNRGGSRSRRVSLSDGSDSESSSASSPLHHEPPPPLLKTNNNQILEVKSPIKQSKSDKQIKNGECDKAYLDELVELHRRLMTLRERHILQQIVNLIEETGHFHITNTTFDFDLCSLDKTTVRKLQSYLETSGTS
FGF22 binding: binders of human FGF22 protein, primary screen, FGF22 synaptogenesis inhibitor project, biophysical, thermal shift, single point; Fibroblast growth factor 22 (Homo sapiens), Q9HCT0; recombinant FGF22 thermal shift, SYPRO orange fluorescence; percent of sucrose octasulfate shift, DMSO zero; calls only at 9.99 µM; 340,000 compounds, 1.5% hits;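 active = melting point raised past a set limit in the mean and every replicate; inconclusive = no clear call; three in four hits are not shown here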
Target sequence (Q9HCT0 whole entry, looked up): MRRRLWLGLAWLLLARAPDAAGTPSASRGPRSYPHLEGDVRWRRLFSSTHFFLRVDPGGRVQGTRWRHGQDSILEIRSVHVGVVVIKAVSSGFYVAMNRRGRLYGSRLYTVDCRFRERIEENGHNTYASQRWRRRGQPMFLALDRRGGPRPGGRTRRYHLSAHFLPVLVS
ALR inh: inhibitors of human ALR sulfhydryl oxidase, primary screen, biochemical, H2O2 detection, HRP-luminol luminescence, single point. 290,000 compounds, 3.8% hits. FAD-linked sulfhydryl oxidase ALR (Homo sapiens), P55789. purified ALR, DTT oxidation. inhibition, % (test concentration not listed);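 active = mean and each replicate at 75% or more; inconclusive = only one of the two met; inactive = neither met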;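 also: stock transfer was 7.5 nL into about 7.5 µL; 0% = neutral wells and 100% = wells with inactivated enzyme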
Target sequence (P55789 whole entry, looked up): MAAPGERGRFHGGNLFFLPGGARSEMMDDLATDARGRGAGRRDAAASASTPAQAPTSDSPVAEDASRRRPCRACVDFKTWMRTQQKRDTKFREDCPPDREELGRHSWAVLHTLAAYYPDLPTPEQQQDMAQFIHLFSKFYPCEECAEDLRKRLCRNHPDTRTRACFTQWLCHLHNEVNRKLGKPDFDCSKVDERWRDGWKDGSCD
Ecoli rRNA inh OD600: also measured in Ecoli rRNA inh; calls as there; OD600 change, %; measured here: OD600 growth;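 optical density of the mix in the first replicate; 0 = DMSO median and -100 = no signal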
Ecoli rRNA inh RFP: further read-out of Ecoli rRNA inh, marked with its call; RFP signal change, %; measured here: RFP humanized mutant strains;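 first replicate; 0 = DMSO median and -100 = no signal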
Numbers without * were called inactive; i = inactive; u = inconclusive; x = no result given; & = joins results of further samples.

item | SMILES | FGF22 binding | Ecoli rRNA inh | RanGTP-Impb inh | Beta apoptosis | Ecoli rRNA inh OD600 | T cruzi repl | Calb FLC | ALR inh | AF4-AF9 inh | Ecoli rRNA inh RFP
1 | COC(=O)c1nc(NC(=O)c2ccccc2Cl)n[nH]1 | x | x | 1.3 | -7 | x | -3 | -1 | -3 | x | x
2 | Cn1c(SCC(=O)Nc2ccc(NC(=O)c3ccccc3)cc2)nnc1-c1ccncc1 | i | 4 | -1.9 | -4 | 12 | -9 | -5 | -1 | -0.7 | -0.2
3 | COc1cccc(/C=N/NC(=O)CNC(=O)COc2cccc(C)c2)c1O | i | 7 | 4.1 | 35 | 11 | 14 | -25 | -2 | 4.2 | -0.9
4 | CC(C)c1ccc(/C=C2\NC(=S)N(Cc3cccnc3)C2=O)cc1 | i | 7 | -5.7 | 3 | 8 | 9 | -8 | -4 | -3.3 | -1.2
5 | Nc1nonc1-n1nnc(C(=O)N/N=C/c2cc(Br)ccc2O)c1CSC1=NCCS1 | x | x | u | 87* | x | 47 | 90* | -1 | x | x
6 | CCOc1ccc(/C(O)=C2/C(=O)C(=O)N(CCN(C)C)C2c2ccccc2)cc1Cl (stereo not given) | x | x | -3.1 | -2 | x | -12 | 0 | -9 | x | x
7 | CCOC(=O)c1c(NC(C)=O)sc2c(O)c(Br)cc(Br)c12 | x | x | -2.3 | -4 | x | -2 | 66 | -15 | x | x
8 | O=C(c1ccc(S(=O)(=O)Cc2ccccc2Cl)c([N+](=O)[O-])c1)N1CCN(c2ccccn2)CC1 | i | -10 | -1.7 | -27 | -1 | -24 | 41 | 63 | 7.1 | -1.3
9 | c1ccc(NC(=NCc2ccco2)c2ccccc2)cc1 | x | x | 3.0 | x | x | -20 | -4 | -4 | x | x
10 | CCCn1c(=N)n(CC(=O)O)c2ccccc21 | x | x | u | x | x | -19 | -6 | -34 | x | x
11 | Cc1ccsc1C1C(C#N)=C(N)N(N(C)C)C2=C1C(=O)CC(C)(C)C2 (stereo not given) | i | -5 | 1.8 | 1 | -3 | 7 | 6 | x | -0.9 | 1.6
12 | c1ccc(Cc2nn3c(C4COc5ccccc5O4)nnc3s2)cc1 (stereo not given) | x | x | 1.9 | -9 | x | 10 | 14 | -3 | x | x
13 | CC[C@H](C)[C@@H]1NC(=O)c2cc([N+](=O)[O-])cc(F)c2OCC[C@@H](C(N)=O)NC(=O)[C@H](CCCCN)NC1=O | i | 8 | -3.2 | -1 | 10 | 6 | 4 | -16 | -3.9 | -0.7
14 | O=C(COC(=O)c1cccnc1Cl)Nc1cc(S(=O)(=O)N2CCCCC2)ccc1Cl | x | -12 | -1.0 | 1 | -8 | 5 | -22 | x | 1.0 | 0.1
15 | c1ccc(-c2ncc(CSc3nncn3-c3ccccc3)s2)cc1 | x | x | 8.3 | -3 | x | 1 | -2 | x | x | x
16 | C=CCOC(=O)C1=C[C@@H](c2cn(C(C)=O)c3ccccc23)C[C@@H](OCc2ccc(CO)cc2)O1 | i | -11 | -2.0 | -3 | -20 | -9 | -3 | -10 | -0.1&-1.3 | -11
17 | CCOc1cc(/C=N/n2nnnc2N)ccc1OCc1c(C)no[n+]1[O-] | x | x | 4.1 | 12 | x | -3 | -7 | -19 | x | x
18 | CCC(CC)NC(=O)CN(c1ccccc1OC)S(=O)(=O)c1cccs1 | i | 2 | 0.7 | -9 | 0 | 12 | 1 | -9 | -13 | 0.8
19 | COc1cc(/C=C2/C(=N)N3OC(C)=CC3=NC2=O)ccc1OC(=O)c1ccco1 | i | 3 | 2.9 | 2 | 3 | -7 | -5 | 11 | -2.2 | -0.5
20 | Cc1ccc(C)c(CSc2nnc([C@@H](N)C(C)C)o2)c1 | x | x | -4.3 | -6 | x | 2 | -12 | -5 | x | x
21 | COc1cccc(C(=O)C[n+]2ccccc2/C=N/O)c1 | x | x | -3.3 | -4 | x | -17 | u | 5 | x | x
22 | COC(=O)c1c(NC(=O)c2ccc(Br)o2)sc(C)c1C | x | x | -0.5 | 4 | x | 17 | 2 | 18 | x | x
23 | CCC(=O)c1ccc(OCCn2cncn2)cc1 | x | x | 5.2 | -7 | x | -15 | 1 | -13 | x | x
24 | C[C@@H]1CC=C[C@H]2[C@H]1C(=O)N(Cc1ccccc1)[C@H]2c1ccc(-c2ccc(F)cc2)cc1F | i | 4 | -1.6 | 3 | 13 | 28 | -14 | x | 1.1 | -2.2
25 | COc1ccc(CNCCNC(=O)c2ccco2)c(OC)c1OC | x | x | 0.8 | 1 | x | -8 | 91* | 9 | x | x
26 | CC(C)CC(=O)Nc1ccc2oc(-c3cccnc3)nc2c1 | x | x | u | 2 | x | -15 | 7 | -5 | x | x
27 | Cc1c(NC(=O)c2ccccc2NS(=O)(=O)c2ccc(F)cc2)c(=O)n(-c2ccccc2)n1C | x | x | -0.3 | -1 | x | -10 | -1 | 4 | x | x
28 | O=C(Nc1ccc(CN2CCS(=O)(=O)CC2)cc1)c1ccc(Cl)cc1 | i | 8 | 0.4 | 2 | 10 | -2 | -4 | -4 | -15 | 9.1
29 | CCOc1ccc(N(CC(=O)NN=C2CCN(C)CC2)S(C)(=O)=O)cc1 | x | x | 0.8 | -5 | x | 4 | -7 | 91* | x | x
30 | Cc1cccc(-n2c(-c3csc4ccccc34)n[nH]c2=S)c1 | i | -15 | 1.7 | -4 | -9 | -19 | 36 | 47 | -5.7 | 3.4
31 | O=C1NC(NS(=O)(=O)c2ccccc2)(C(F)(F)F)C(=O)N1c1ccc(F)cc1 (stereo not given) | x | x | -1.9 | 3 | x | -1 | 0 | 1 | x | x
32 | CCCCOc1ccc(/C=N/NC(=O)c2csc(C)c2C)cc1 | x | x | -4.6 | 0 | x | -1 | 2 | -1 | x | x
33 | COC(=O)c1sccc1NC(=O)c1cc(-c2cccc(C)c2)nc2ccccc12 | x | x | 5.2 | 0 | x | 3 | 3 | -3 | x | x
34 | CN(Cc1ccc(Cl)cc1)C(=O)c1ccc2ccccc2n1 | i | -10 | 2.0 | 0 | -16 | -5 | 3 | x | -0.7 | 0.0
35 | COc1ccc(NC(=O)COc2ccc(C)c(C)c2)cc1S(=O)(=O)N1CCCCC1 | i | -8 | 1.6 | 2 | -12 | 14 | 4 | -3 | 0.2 | 7.8
36 | COc1ccc(NC(=O)C(Cl)=C(Cl)Cl)cn1 | i | 9 | -0.6 | x | 2 | -8 | 57 | x | 0.2 | 1.1
37 | CC(=O)N(Cc1ccccc1)c1nc(-c2ccccc2)cs1 | i | -18 | 1.8 | -7 | -15 | 1 | -5 | -14 | -2.0 | -4.2
38 | Cc1ccc(-n2c(CNC(=O)c3cccs3)nnc2SCC(=O)NO)cc1 | i | 15 | 1.5 | -6 | 4 | -6 | 3 | 2 | 2.2 | 3.2
39 | CCCCN1C(Nc2ccccc2)=NC[C@@H]1C | i | 5 | x | -9 | 7 | x | x | 6 | 2.8 | -0.9
40 | O=C(c1ccco1)N1N=C(c2ccc3nccnc3c2)CC1c1ccccc1 (stereo not given) | i | -23 | 0.3 | 4 | -36 | 2 | 21 | -8 | -0.4 | -4.8
41 | COc1cc(/C=C2\N=C(c3ccccc3)OC2=O)ccc1OC(C)=O | i | 9 | -0.1 | 1 | 6 | -2 | 21 | 42 | -2.6 | -3.7
42 | CCOC(=O)c1sc(NC(=O)CSc2nc3c(cc2C#N)CCCCC3)c(C#N)c1C | x | x | 3.8 | 6 | x | 24 | -2 | 1 | x | x
43 | Oc1ccc(N2CCN(C(=S)NCc3ccccc3)CC2)cc1 | i | -18 | -1.6 | x | -15 | -37 | -24 | u | 0.6 | 0.6
44 | CCOc1ccc(OCC)c(NS(=O)(=O)c2cccc3nsnc23)c1 | x | x | 1.0 | -4 | x | 14 | -12 | -1 | x | x
45 | Cc1ccccc1NC(=O)c1ccc(CN(c2ccccc2)S(=O)(=O)c2ccccc2)cc1 | i | 4 | -1.2 | 12 | -10 | 26 | -10 | -3 | 0.6 | -2.1
46 | Cn1c(=O)c(C(=O)NCc2ccc(Cl)cc2)c(O)c2ccccc21 | i | 4 | 4.3 | x | 7 | -8 | 2 | 0 | 3.0 | -0.1
47 | CCN(C(=O)c1cc(S(=O)(=O)N2CCc3ccccc32)cn1C)c1ccccc1 | i | -20 | u | 1 | -41 | 14 | 10 | -12 | -3.0 | -4.3
48 | O=C(CC1Nc2ccccc2NC1=O)Nc1ccccc1 (stereo not given) | x | x | 1.9 | -3 | x | -28 | 2 | x | x | x
49 | CCCCC(CC(O)COCC(C)C)C(=O)NN (stereo not given) | i | 17 | 2.5 | -8 | 6 | -4 | -2 | -39 | -1.6 | -1.0
50 | CSc1nnc(-c2ccc(S(=O)(=O)N3CCCCC3)cc2)o1 | x | 1 | -5.3 | -3 | 8 | 4 | 1 | -5 | 0.0 | -0.9

Next section.
item | SMILES | FGF22 binding | Ecoli rRNA inh | RanGTP-Impb inh | Beta apoptosis | Ecoli rRNA inh OD600 | T cruzi repl | Calb FLC | ALR inh | AF4-AF9 inh | Ecoli rRNA inh RFP
51 | COc1ccc(N/C=C(\C#N)S(=O)(=O)c2ccc(Cl)cc2)c(OC)c1 | i | -29 | -5.4 | -4 | -30 | 13 | 35 | 0 | -5.9 | -4.8
52 | Oc1ccc(N=Nc2ccccc2)cc1 | i | -18 | -1.9 | 4 | -9 | -14 | -26 | 99* | 6.5 | -2.6
53 | O=C(Nc1cccc2ccccc12)N(CCO)C1CCS(=O)(=O)C1 (stereo not given) | i | 5 | 6.9 | -1 | -4 | 4 | 4 | -33 | -4.5 | -1.6
54 | O=C(Nc1ccc2c(c1)OCO2)N1CCN(Cc2ccco2)CC1 | i | 12 | 1.5 | -3 | 16 | -9 | -21 | -11 | -0.9 | 5.2
55 | COc1ccccc1C1C(C(N)=O)=C(C)Nc2ncnn21 (stereo not given) | x | x | 23* | -4 | x | -18 | -8 | 12 | x | x

Four entries already listed, arranged by count of non-hydrogen atoms, highest first.
item | SMILES | FGF22 binding | Ecoli rRNA inh | RanGTP-Impb inh | Beta apoptosis | Ecoli rRNA inh OD600 | T cruzi repl | Calb FLC | ALR inh | AF4-AF9 inh | Ecoli rRNA inh RFP
54 | O=C(Nc1ccc2c(c1)OCO2)N1CCN(Cc2ccco2)CC1 | i | 12 | 1.5 | -3 | 16 | -9 | -21 | -11 | -0.9 | 5.2
50 | CSc1nnc(-c2ccc(S(=O)(=O)N3CCCCC3)cc2)o1 | x | 1 | -5.3 | -3 | 8 | 4 | 1 | -5 | 0.0 | -0.9
55 | COc1ccccc1C1C(C(N)=O)=C(C)Nc2ncnn21 (stereo not given) | x | x | 23* | -4 | x | -18 | -8 | 12 | x | x
52 | Oc1ccc(N=Nc2ccccc2)cc1 | i | -18 | -1.9 | 4 | -9 | -14 | -26 | 99* | 6.5 | -2.6

Only part of the results is shown; count on the stated rates, not on these rows.
